HNF4A DNA FP: change in binding of human HNF4A to DNA, primary screen, biochemical, fluorescence polarization, FITC-DNA; Hepatocyte nuclear factor 4-alpha (Homo sapiens), P41235; AID 1224865, 2016; activity change, % at 10 µM; 1 h; actives 0.3% (n = 360,000); in the data active = activity change above about 30%, passing the limit was not always enough;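 note: controls were the assay level and a saturating level of protein; the project sought stronger binding though the title names inhibitors; some compounds called inactive have numbers as strong as hits; positive values seem to mean higher polarization but the record does not say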
Target sequence (P41235 whole entry, looked up): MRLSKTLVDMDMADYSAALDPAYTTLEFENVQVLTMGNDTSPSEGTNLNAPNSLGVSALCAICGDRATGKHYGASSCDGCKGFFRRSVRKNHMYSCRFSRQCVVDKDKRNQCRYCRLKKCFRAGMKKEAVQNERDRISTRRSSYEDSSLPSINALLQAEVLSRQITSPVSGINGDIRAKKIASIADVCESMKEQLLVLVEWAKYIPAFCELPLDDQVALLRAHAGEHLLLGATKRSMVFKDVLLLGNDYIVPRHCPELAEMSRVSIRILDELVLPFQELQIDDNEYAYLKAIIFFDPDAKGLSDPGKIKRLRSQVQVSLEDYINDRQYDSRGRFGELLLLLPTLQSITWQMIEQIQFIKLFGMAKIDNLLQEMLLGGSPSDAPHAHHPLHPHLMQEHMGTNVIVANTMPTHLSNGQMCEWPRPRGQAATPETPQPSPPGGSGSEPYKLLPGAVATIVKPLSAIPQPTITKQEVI
Vif TR-FRET: inhibitors of Vif binding to APOBEC3G peptide, primary screen, biochemical, TR-FRET, GST-Vif 1-94, biotin-A3G peptide, dose response retest (AID 1117319); Virion infectivity factor (Human immunodeficiency virus type 1 group M subtype B (isolate …; TR-FRET GST-Vif / biotin-A3G peptide binding; higher % means a stronger effect; test concentration not given here; strong numbers were not always called active; one-dose inhibition, %; IC50 in µM for titrated hits; actives 0.57% (n = 260,000);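 active = above the screen mean plus three standard deviations and confirmed in dose response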;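 note: Vif residues 1-94 fused to GST binding biotinylated APOBEC3G peptide 110-148; 0% = full assay without inhibitor and 100% = GST in place of GST-Vif; retest series ran down from 100 µM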
* = called active by the depositor. Only part of the results is shown. The share of hits here may be higher or lower than overall.

SMILES	HNF4A DNA FP	Vif TR-FRET
CCCCN1C(=O)C(CC(=O)NCCCCc2ccccc2)CC(C(=O)N2CCOCC2)=C1C (stereo not given)	-7.1	-7%
COc1cccc(NC(=O)N(C)C[C@H]2OCc3cnnn3CCCC(=O)N([C@H](C)CO)C[C@@H]2C)c1	-1.9	-13%
COc1ccc(NC(=O)CCNC(=O)C2CCN(S(=O)(=O)c3ccccc3)CC2)cc1OC	2.5	-2%
O=C(C=Cc1ccc2c(c1)OCO2)C1CC1	0.8	3%
O=C1CCC(C(=O)OCC(=O)Nc2ccccc2Br)=NN1	-1.7	-9%
O=C(O)C1=C2C(=O)Nc3cccc(c32)C2(C1)C(=O)Nc1ccccc12 (stereo not given)	-3.7	4%
C[C@@H]1CN([C@@H](C)CO)S(=O)(=O)c2ccc(Br)cc2O[C@H]1CN(C)C(=O)c1ccccc1	-3.5	4%
Cc1nc(C)c(-c2csc(Nc3ccc(Cl)cn3)n2)s1	-1.8	-3%
OCC1OC(c2ccc(OCc3ccccc3)cc2OCc2ccccc2)C(O)C1O (stereo not given)	2.4	2%
Cc1cc(NC(=O)COC(=O)c2ccc(Cl)cc2)no1	1.7	8%
Cc1nc(N)ncc1CCC1OCCO1	6.1	-2%
CC1C(=O)N(Cc2cn(Cc3ccco3)nn2)CCS(=O)(=O)N1Cc1ccc(-c2ccc(F)nc2)cc1 (stereo not given)	2.4	7%
CCOC(=O)CC1c2nc3ccccc3cc2CN1C(=O)OCC (stereo not given)	-6.0	9%
Cc1ccc(S(=O)(=O)N2C[C@H]3N(C(=O)OC(C)C)N(C(=O)OC(C)C)C[C@H](OC(=O)Nc4c(C)noc4C)[C@@]3(O)C2)cc1	-0.5	3%
CC(=O)NCCc1ccc(C(=O)COC(=O)c2ccc(C)s2)cc1	-0.1	10%
CCN1C(=O)[C@H]2[C@@H](c3ccc(C(F)(F)F)cc3)N[C@]3(CCCN(Cc4ccco4)C3=O)[C@H]2C1=O	3.2	4%
CC1(C)OC(=O)C2=C(CC(c3ccccc3)OC2CCc2ccccc2)O1 (stereo not given)	1.4	2%
CCOC(=O)c1c(NC(=O)COC(=O)c2cccc([N+](=O)[O-])c2)sc(C(=O)N(C)C)c1C	-0.1	9%
CCN(Cc1ccc(Br)s1)C(=O)CSc1nnc(C2CC2)n1C1CC1	1.9	4%
O=C(CC1CC1)Nc1ccc2c(c1)[C@@H]1C[C@H](CC(=O)NC3CCCC3)O[C@@H](CO)[C@@H]1O2	0.3	3%

4 entries already listed, sorted by the value under Vif TR-FRET, low to high.
Molecule | Vif TR-FRET
CCN1C(=O)[C@H]2[C@@H](c3ccc(C(F)(F)F)cc3)N[C@]3(CCCN(Cc4ccco4)C3=O)[C@H]2C1=O | 4%
CC1C(=O)N(Cc2cn(Cc3ccco3)nn2)CCS(=O)(=O)N1Cc1ccc(-c2ccc(F)nc2)cc1 (stereo not given) | 7%
CCOC(=O)c1c(NC(=O)COC(=O)c2cccc([N+](=O)[O-])c2)sc(C(=O)N(C)C)c1C | 9%
CC(=O)NCCc1ccc(C(=O)COC(=O)c2ccc(C)s2)cc1 | 10%

Additional compounds.
SMILES	HNF4A DNA FP	Vif TR-FRET
COc1cccc(CN(C)C[C@H]2OCc3cnnn3CCCC(=O)N([C@@H](C)CO)C[C@@H]2C)c1	2.1	-1%
CCOc1ccc(-n2c(C)c3c(C)nnc(C)c3c2C)cc1	10	2%
O=C1C=CN(C2OC(CO)C(O)C2O)C(=O)C1 (stereo not given)	5.3	9%
C[C@H]1CN([C@@H](C)CO)C(=O)c2cc(-c3ccccc3F)cnc2O[C@@H]1CN(C)C(=O)NC1CCCCC1	1.8	5%
CC(C)OC(=O)N(C)C[C@@H]1OCc2cnnn2CCCC(=O)N([C@@H](C)CO)C[C@@H]1C	-3.2	2%
CCCCCCN1C[C@H](O)[C@@H](n2cc(C3CC3)nn2)C[C@@H]1c1ccccc1	1.5	14%
Cn1cc(/C=C(\NC(=O)c2ccccc2)C(=O)NCCCn2ccnc2)c2ccccc21	-4.1	4%
CCCCN1C(=O)C(CC(=O)NC2CCCC2)CC(C(=O)N(CC)CC)=C1C (stereo not given)	3.4	-2%
C=CCN1C(=O)/C(=C/N(C)C)S/C1=N\S(=O)(=O)c1cccs1	2.9	-5%
CCC(C)C(CO)NCCCn1cnc2c(OCc3ccccc3)ncnc21 (stereo not given)	-1.2	-3%
C=CCN(C(=O)CSc1nc2ccsc2c(=O)n1Cc1ccc(C(=O)O)cc1)c1ccccc1	-0.5	-6%
CCCCN1C[C@H](C)[C@@H](CC(=O)Nc2ccccc2)C1=O	-0.4	-2%
COc1ccc(C(C#N)=Cc2ccc(OC)c(OC)c2)cc1	-0.6	-5%
C[C@@H]1CN([C@@H](C)CO)C(=O)c2cc(C#Cc3ccccc3)cnc2O[C@H]1CN(C)C(=O)c1ccccc1F	-2.6	-10%
CCSc1nnc(NC(=O)C2CCCN(C(=O)c3ccc(Cl)cc3)C2)s1 (stereo not given)	-1.6	-9%
C[C@H]1CN([C@@H](C)CO)S(=O)(=O)c2ccc(Br)cc2O[C@@H]1CN(C)C(=O)CCN1CCCCC1	1.9	-1%
COc1cccc(S(=O)(=O)N(C)C[C@H]2OCc3cnnn3CCCC(=O)N([C@@H](C)CO)C[C@H]2C)c1	-3.8	-11%
CC(OC(=O)C1COc2ccccc2O1)C(=O)c1ccccc1 (stereo not given)	-3.5	6%
Cc1cn([C@H]2C[C@H](O)[C@@H](CNC(=O)CNC(=O)CN)O2)c(=O)[nH]c1=O	5.7	2%
CCCC1NC(=O)c2cc3ccccc3cc2-n2c1nc1cc(Cl)ccc1c2=O (stereo not given)	-4.0	-2%
Nc1ccccc1CCc1ccccc1N	0.0	-1%
CCN(c1ccccc1)S(=O)(=O)c1ccc(OC)c(NC(=O)c2ccco2)c1	2.3	-2%
CN1C(=O)CN(CCN2CC(=O)N(C)C(=O)C2)CC1=O	-2.2	-2%
Cc1ccc([C@H]2C[C@H](n3cc(COC(=O)c4ccccc4)nn3)[C@@H](O)CN2CC2CCCCC2)cc1	-5.9	-4%
N#Cc1ccsc1NC(=O)c1ccc2ncsc2c1	69*	-47%
CC1=C(C(=O)N(C)C)CC(CC(=O)NCCN2CCOCC2)C(=O)N1Cc1ccccc1 (stereo not given)	1.0	0%
CC(C)C1C(=O)N(Cc2cn(CCC3OCCO3)nn2)CCS(=O)(=O)N1Cc1ccc(-c2cccc(CO)c2)cc1 (stereo not given)	-0.8	6%
COC(=O)C[C@H]1C[C@@H]2c3cc(N(C)C)ccc3O[C@@H]2[C@H](CO)O1	3.9	3%
COc1cc(/C=C2/SC(=S)N(CC(=O)NNC(=O)c3ccc(F)cc3)C2=O)cc(OC)c1OC	0.2	2%
O=C(c1cccs1)N1C[C@@H](O)[C@H](n2cc(C3CC3)nn2)C[C@@H]1c1ccccc1	-1.7	-5%
COc1cc(C=Cc2nnc3c4ccccc4cnn23)cc(OC)c1OC	-1.7	-9%
Cc1cccc(S(=O)(=O)N(C)C[C@H]2OCc3cnnn3CCCC(=O)N([C@@H](C)CO)C[C@H]2C)c1	-1.7	-7%
CNC[C@@H]1Oc2cc(Br)ccc2S(=O)(=O)N([C@H](C)CO)C[C@H]1C	-2.2	-9%
CCc1ccc(CN(C)C(=O)c2cc(COc3cncc(Cl)c3)on2)cc1	3.3	-7%
COC[C@H](NS(=O)(=O)c1ccc(Br)cc1F)[C@@H](O)c1ccccc1	4.1	-1%
O=C(Nc1ccc(N2CCOCC2)cc1)C1CCN(S(=O)(=O)c2cccc(C(F)(F)F)c2)CC1	-0.6	9%
COc1cccc(-c2cccc(NC(=O)C3CCN(CCCn4cccn4)CC3)c2)c1	1.6	6%
Cc1cc(Cl)ccc1C(=O)C1CCCN(C(=O)c2ccc3c(c2)OCO3)C1 (stereo not given)	-1.1	-3%
COc1ccc(NC(=O)CSc2nnnn2-c2cccc(OC)c2)cc1	-5.0	1%
Cc1ccc(S(=O)(=O)NN=C2CC3CC2C2CCCC32)cc1 (stereo not given)	-1.5	2%
COC(=O)c1cc(NC(=O)CC(=O)c2cccc(N)c2)cc(C(=O)OC)c1	5.4	4%
COc1ccccc1CN1CCNC(=O)C1CC(=O)N(C)C1CCOCC1 (stereo not given)	7.0	-7%
CC(=O)Nc1ccc(C(C#N)=Cc2ccc(N(C)CCC#N)cc2)cc1	9.7	0%
Cc1ccccc1OCC(=O)OCC(=O)NC1CCCC(C)C1C (stereo not given)	-4.0	-3%
Cc1ccc(S(=O)(=O)C=CS(=O)(=O)c2ccc(C)cc2)cc1	-1.1	-9%
C[C@H]1CN([C@@H](C)CO)C(=O)CCCn2nncc2CO[C@H]1CN(C)C(=O)NC1CCCCC1	0.5	5%
O=C(c1ccc(F)cc1)C1CCN(Cc2ccccc2F)CC1	5.4	8%
CC(C)CN(C(=O)CSc1nnc(-c2cccs2)n1C1CC1)C1CCS(=O)(=O)C1 (stereo not given)	0.2	4%
C[C@H]1CN([C@@H](C)CO)C(=O)CCCn2cc(nn2)CO[C@@H]1CN(C)S(=O)(=O)c1ccc(C#N)cc1	2.8	-5%
Cc1ccccc1C(=O)N(C)[C@H]1C[C@H]2c3[nH]c4ccccc4c3CCN2C(=O)[C@H]1[C@H](C)O	-1.1	1%
(listing goes on)
SMILES	HNF4A DNA FP	Vif TR-FRET
C[C@@H]1CN([C@@H](C)CO)S(=O)(=O)c2ccc(Br)cc2O[C@@H]1CN(C)C(=O)C1CC1	-1.7	1%
C[C@@H]1CN([C@@H](C)CO)C(=O)c2cc(Br)cnc2O[C@H]1CN(C)Cc1cccnc1	-1.8	1%
O=C1NC(Cc2ccc(O)cc2)c2nc3ccc(F)cc3c(=O)n2-c2ncccc21 (stereo not given)	-4.8	6%
CCOC(=O)C1CN(C(=O)OCC)CC1=NNC(N)=O (stereo not given)	-0.9	-2%
COc1cc2c(cc1OC)C(=O)C(c1ccc3c(c1)OCO3)CC2 (stereo not given)	2.0	12%
c1ccc(COc2ncnc3c2ncn3CCCN2CCN(Cc3cccc4ccccc34)CC2)cc1	0.8	-3%
CCC(=O)N(C)C[C@H]1Oc2cc(-c3cccnc3)ccc2S(=O)(=O)N([C@H](C)CO)C[C@H]1C	-0.4	-4%
CC(C)CSCC1OC(n2cnc3c(N)nccc32)C(O)C1O (stereo not given)	-0.1	-4%
CCOC(=O)C1CCc2c(ccc3ccccc23)N1CCC#N (stereo not given)	-1.7	8%
CSc1ncnc2c1ncn2CCCNCC(C)c1ccccc1 (stereo not given)	0.3	-8%
COC(=O)C1CC(c2ccccc2)N(c2ccccc2)O1 (stereo not given)	-0.6	-2%
O=C(COC(=O)c1c(F)cccc1F)Nc1cccc(S(=O)(=O)N2CCCCC2)c1	1.6	1%
FC(F)(F)c1nc2nccnc2[nH]1	1.4	-1%
COc1ccc(S(=O)(=O)N(C)C[C@@H]2OCc3cnnn3CCCC(=O)N([C@H](C)CO)C[C@@H]2C)cc1	1.5	-4%
COc1ccc(C(=O)N2C=Cc3ccccc3C2C#N)cc1 (stereo not given)	-2.9	0%
CN(C)c1ccc(N=Nc2nccs2)cc1	10	2%
COc1ccc([C@H]2C[C@@H](n3cc(-c4ccc(F)cc4)nn3)[C@H](O)CN2Cc2cccs2)cc1	-6.3	7%
Cc1nc(Cc2nnc(SCC(=O)N3c4ccccc4NC(=O)C3(C)C)o2)cs1	-1.0	9%

Grouped by structure: those above with an aryl methoxy group
SMILES	HNF4A DNA FP	Vif TR-FRET
COc1cccc(NC(=O)N(C)C[C@H]2OCc3cnnn3CCCC(=O)N([C@H](C)CO)C[C@@H]2C)c1	-1.9	-13%
COc1ccc(NC(=O)CCNC(=O)C2CCN(S(=O)(=O)c3ccccc3)CC2)cc1OC	2.5	-2%
COc1cccc(CN(C)C[C@H]2OCc3cnnn3CCCC(=O)N([C@@H](C)CO)C[C@@H]2C)c1	2.1	-1%
COc1ccc(C(C#N)=Cc2ccc(OC)c(OC)c2)cc1	-0.6	-5%
COc1cccc(S(=O)(=O)N(C)C[C@H]2OCc3cnnn3CCCC(=O)N([C@@H](C)CO)C[C@H]2C)c1	-3.8	-11%
CCN(c1ccccc1)S(=O)(=O)c1ccc(OC)c(NC(=O)c2ccco2)c1	2.3	-2%
COc1cc(/C=C2/SC(=S)N(CC(=O)NNC(=O)c3ccc(F)cc3)C2=O)cc(OC)c1OC	0.2	2%
COc1cc(C=Cc2nnc3c4ccccc4cnn23)cc(OC)c1OC	-1.7	-9%
COc1cccc(-c2cccc(NC(=O)C3CCN(CCCn4cccn4)CC3)c2)c1	1.6	6%
COc1ccc(NC(=O)CSc2nnnn2-c2cccc(OC)c2)cc1	-5.0	1%
COc1ccccc1CN1CCNC(=O)C1CC(=O)N(C)C1CCOCC1 (stereo not given)	7.0	-7%
COc1cc2c(cc1OC)C(=O)C(c1ccc3c(c1)OCO3)CC2 (stereo not given)	2.0	12%
COc1ccc(S(=O)(=O)N(C)C[C@@H]2OCc3cnnn3CCCC(=O)N([C@H](C)CO)C[C@@H]2C)cc1	1.5	-4%
COc1ccc(C(=O)N2C=Cc3ccccc3C2C#N)cc1 (stereo not given)	-2.9	0%
COc1ccc([C@H]2C[C@@H](n3cc(-c4ccc(F)cc4)nn3)[C@H](O)CN2Cc2cccs2)cc1	-6.3	7%

Screening data from PubChem BioAssay.
